# MgrA DNA FP – modulators of Staphylococcus aureus MgrA DNA binding; hit rate 0.13% among 84,000; fluorescence polarization; inhibition, %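 (about 10 µg/mL by stock and volumes)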;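 active means above 50% in either of two replicates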;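 further: 0% = protein plus DNA without compound and 100% = DNA alone without protein; higher means less MgrA bound to DNA so lower polarization; one replicate is shown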
# Sa helicase inh – S. aureus DNA helicase inhibition | purified S. aureus helicase, fluorescence unwinding assay; about half of the hits fall short of the stated cut | inhibition, %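 (tested at about 80 µM)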 | hit rate 0.05% among 120,000 | AID 485395;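 active means both duplicates at 50% or more, or one of them with a favoured structure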;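 further: 0% = mean of negative control wells and 100% = mean of positive control wells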
# Numbers without * were called inactive; x = not tested or not shown.
SMILES,MgrA DNA FP,Sa helicase inh
COc1ccc(N2C(=O)CC(c3cn(Cc4ccccc4)c4ccccc34)C2=O)cc1 (configuration not stated),0.0,-1
CC1CC(C)CN(CC(C)(C)NS(=O)(=O)c2ccc(Cl)cc2)C1 (configuration not stated),x,-9
C=CCc1c(C)nc(N)[nH]c1=O,0.1,8
Nc1cc(-c2ccco2)nn1-c1cc(C(F)(F)F)cc(C(F)(F)F)c1,-2.0,x
O=S(=O)(c1ccccc1)C1c2ccccc2Oc2ccccc21,1.1,-4
CCCN(c1ccccc1OC)S(=O)(=O)c1cc(Br)cnc1N,0.4,19
Cc1nn(C(=O)c2ccco2)c(-c2ccccc2)c1Sc1ccccc1,x,1
CCC(C)NC(=O)C1CCN(C(=O)c2sccc2-n2cccc2)CC1 (configuration not stated),x,1
CN(C)CCN=Cc1c(O)n(Cc2ccccc2)c(=O)c2ccccc12,x,27
Cc1ccc(C2=NS(=O)(=O)N(C)C(C(=O)NCc3ccccn3)=C2)cc1,x,-11
O=C1CCC(=O)N1c1ccc(S(=O)(=O)NCCCN2CCN(Cc3ccccc3)CC2)cc1,x,-13
O=C1/C(=C/NC2CC2)S(=O)(=O)N(Cc2cccc(F)c2)c2ccsc21,x,-22
O=C1NC(c2ccccc2)=N/C1=C\c1ccccc1,x,-7
O=C(CSc1nc2ccccc2[nH]1)NCCc1ccccc1,1.0,0
Cc1nc2c(c(C)nn2-c2ccccc2)c(C)c1CCC(=O)N1CCc2ccccc21,x,3
CCN(CC)C(=O)CSc1nc2c(c(=O)n(C)c(=O)n2C)n1Cc1ccccc1C,x,18
O=C(Cc1cccs1)Nc1nnc(-c2ccc(Cl)cc2)s1,x,-11
COc1ccccc1NC(=O)CCN1C(=O)c2ccccc2Sc2ncccc21,0.6,4
O=C(c1ccc2nonc2c1)N1CCN(c2ccccc2)CC1,-0.8,x
CCc1nnc(NC(=O)CCN2C(=O)NC3(CCCC3)C2=O)s1,x,23
CC(C)(C)c1ccc(-c2ncccc2O)cc1,1.9,3
Nc1cc(C(F)(F)F)ccc1C(=O)O,x,7
CC(NC(=O)NCc1noc2ccccc12)c1ccccc1 (configuration not stated),1.6,2
Cc1ccc(S(=O)(=O)N2CCN(C(=O)c3c(C)nn(-c4ccccc4)c3Cl)CC2)cc1,1.6,-4
O=S(=O)(c1ccc(-n2cccn2)cc1)N1CCCC1,-1.5,2

# 2 of the compounds above, with values under each structure:
# Values run as follows: MgrA DNA FP | Sa helicase inh
O=C(CSc1nc2ccccc2[nH]1)NCCc1ccccc1
    1.0 | 0
Nc1cc(C(F)(F)F)ccc1C(=O)O
    x | 7

# (more compounds)
SMILES,MgrA DNA FP,Sa helicase inh
CN(C)c1ccc(C=C2C(=O)OC(C)(C)OC2=O)cc1,x,-8
CCCc1nc2ccccc2c2nc(N)nn12,0.1,-8
CC(=O)N1c2ccccc2CCc2ccc(NC(=S)NC(=O)/C=C/c3ccccc3)cc21,4.2,2
CC(C(=O)O)n1c(C(F)(F)F)nc2ccccc21 (configuration not stated),-4.5,x
N=C(N)N1CCc2ccccc2C1,-1.4,x
Cc1nn(C2CC(=O)N(c3ccc(Cl)cc3)C2=O)c(C)c1C (configuration not stated),-1.2,1
Cc1ccc(C(O)CCc2ccc(N)cc2)cc1 (configuration not stated),0.9,x
CC(C)Cn1cc(NC(=O)Nc2cccnc2)c2ccccc2c1=O,x,11
CS(=O)(=O)N1CCN(C(=O)c2ccccc2)C1,1.4,-1
O=C(CCC1CCCCC1)Nc1nc2ccccc2s1,0.8,3
Cc1csc(SCc2ccccc2C(=O)OCC(N)=O)n1,x,6
CNc1scnc1S(=O)(=O)c1ccc(C)cc1,-0.5,x
O=c1n(Cc2ccc(F)cc2)nc2n1-c1ccccc1SC2,-5.0,x
Cc1cc2ncn(CCOc3ccccc3)c2cc1C,0.5,-2
Cc1ccc(C(=O)N/C(=C\c2ccco2)C(=O)NC2CCCCC2)cc1,x,-17
CCN(CC)c1ccc(C=C2C(=O)OC(c3ccccc3)OC2=O)cc1 (configuration not stated),-2.2,-37
CC1=[N+](CCO)c2ccccc2C1(C)C,-2.4,11
O=C(COC(=O)c1c(F)cccc1Cl)c1ccccc1F,-10,24
O=C(COC(=O)Cn1cnc2ccccc2c1=O)Nc1ccc2c(c1)OCO2,x,-4
CCCc1nc(SCC(=O)c2ccccc2Cl)[nH]c(=O)c1C,-2.5,x
O=C(COC(=O)Cc1cccs1)Nc1ccccc1,x,-4
CCSC1=N/C(=C\c2cc(Br)c(OC(C)=O)c(OC)c2)C(=O)S1,0.9,-1
CCn1c(C)nc2cc(-c3nc4c5c6c(sc5ncn4n3)CCCC6)ccc21,x,-43
CN(C)C(CNC(=S)NC1CC1)c1ccccc1 (configuration not stated),x,3
CC(=O)N/C(=N\OCc1ccc(Br)cc1)c1nonc1NC(C)=O,x,-23

# Two successive compounds from above, quoted:
SMILES,MgrA DNA FP,Sa helicase inh
CN(C)C(CNC(=S)NC1CC1)c1ccccc1 (configuration not stated),x,3
CC(=O)N/C(=N\OCc1ccc(Br)cc1)c1nonc1NC(C)=O,x,-23

# Continuation:
SMILES,MgrA DNA FP,Sa helicase inh
O=C(O)C1SCCN1C(=O)c1ccc(Cl)cc1 (configuration not stated),-6.3,x
COc1ccc2nnc(-c3ccccc3)n2n1,x,-5
N#Cc1c(/N=C/N2CCCCC2)sc2c1CCCC2,0.8,4
COc1cc(/C=C/C(=O)Nc2ccc(-c3nnc4n3CCCCC4)cc2)ccc1OCC#N,x,-5
Clc1cccc(-n2ncc3c(NC4CCCC4)ncnc32)c1,x,-3
COCCn1c(SC(C)C#N)nc2cc(Cl)ccc2c1=O (configuration not stated),x,-10
O=C1c2ccccc2NC(c2cccs2)N1c1ccccc1 (configuration not stated),-2.0,-3
CCc1ccc2[nH]c(=O)c(CN(Cc3ccco3)Cc3nnnn3Cc3ccccc3)cc2c1,-1.8,3
NC(N)=Nc1ccccc1F,x,5
COC(=O)c1ccc(CSc2n[nH]c(=O)n2C2CC2)cc1,x,13
O=c1[nH]cnc2scc(-c3ccc(Cl)cc3)c12,x,12
CCCC(=O)N(Cc1nc2ccccc2c(=O)[nH]1)C1CCCC1,3.5,11
C/C(CN1C(=O)c2ccccc2C1=O)=N/NC(=O)c1ccccc1O,2.4,5
CNC(=O)N(C1=NCCS1)c1ccccc1,x,7
CN1CCN(/C=C2\C(=O)N(c3ccc(Cl)cc3)C(=O)c3ccccc32)CC1,x,4
O=c1cc(-c2cccs2)oc2ccc(Br)cc12,2.4,-9
CCC(=O)Nc1ncc2c(n1)CC(C)(C)CC2=O,-0.8,1
O=C1CSC(=Nc2ccc(Cl)cc2)N1C(=O)c1ccccc1Cl,1.5,x
C/C(=N\O)c1ccc(Cl)c(Cl)c1,0.7,x
COc1cc(Br)c(CCNC(=O)c2ccco2)cc1OC,-2.4,2
COc1cc(-c2nnc(-c3ccc(N4CCOCC4)cc3)o2)cc(OC)c1OC,-0.8,10
OCCN1CCN(CC#CCn2c3ccccc3c3ccccc32)CC1,-0.2,10
COC(=O)c1ccc(NC(=O)c2cc3ccccc3o2)cc1,x,5
CSc1sc(C(=O)O)c(-c2ccc(Cl)cc2)c1C#N,0.0,x
O=C(CCN1CCOCC1)Nc1c(-c2ccccc2)c2cc(Br)ccc2[nH]c1=O,x,17

# Whole records from above:
# `C/C(=N\O)c1ccc(Cl)c(Cl)c1` in the list: MgrA DNA FP: 0.7; Sa helicase inh: x
# `COc1cc(-c2nnc(-c3ccc(N4CCOCC4)cc3)o2)cc(OC)c1OC` in the list: MgrA DNA FP: -0.8; Sa helicase inh: 10

# Carrying on.
SMILES,MgrA DNA FP,Sa helicase inh
CN(C)CCN1C(=O)C(=O)/C(=C(/O)c2ccccc2)C1c1ccco1 (configuration not stated),-1.0,-3
CCCCCn1c(=O)c2ccccc2n2c(CN3c4cccc5cccc(c45)S3(=O)=O)nnc12,x,-9
O=C(COc1ccc(Cl)cc1)Oc1cc(=O)[nH]c2ccccc12,x,-9
O=C(CSc1nc2ccccc2nc1-c1ccccc1)NCCN1CCOCC1,x,13
Cc1cc(=O)oc2cc(OCC(=O)c3ccc4c(c3)OCO4)ccc12,x,-2
O=c1c(C=Nc2ccccc2)c(Nc2ccccc2)[nH]n1-c1ccccc1,-1.0,x
CC(C)(C)c1ccc(S(=O)(=O)N2CCC(NC(=O)c3ccco3)CC2)cc1,-1.6,14
S=C1NCCN1CCOc1ccccc1,3.0,-11
CCOC(=O)c1c(C)n(C)c2ccc(O)c(S(=O)(=O)c3ccc(C)cc3)c12,-1.2,11
COc1ccccc1-n1c(=O)c2c3c(sc2n2c(SCC(=O)c4ccccc4)nnc12)CCC3,-0.4,7
COc1ccc(NC(=O)c2cc3c(s2)-c2ccccc2SC3)cc1,-0.1,12
CCCCCCC(C)(SCC(=O)O)SCC(=O)O,0.1,x
CCOC(=O)/C(C#N)=C/c1ccccc1,x,19
O=C1SCCC1NS(=O)(=O)c1cc(C(F)(F)F)cc(C(F)(F)F)c1 (configuration not stated),1.0,x
Nc1ccc(Br)cc1C(O)c1ccccc1 (configuration not stated),-0.8,8
COc1cc(/C=C2\C(=O)Nc3ccc(Cl)cc32)cc(OC)c1OC,3.8,-2
S=c1[nH]nc2nc(-c3ccccc3)c(-c3ccccc3)nn12,1.2,x
O=C1c2ccccc2C(=O)C1(O)N1CCOCC1,-1.9,5
CCOc1ccc2oc(C(=O)Nc3ccc(N4CCOCC4)cc3)c(C)c2c1,x,-8
CCN1CCN(CCCNC(=O)C2CCCN(c3nc4c(C)cc(C)cc4s3)C2)CC1 (configuration not stated),x,26
O=C(c1cc(-c2cccs2)nc2ccccc12)N1CCOCC1,-2.4,6
CCC(=O)Nc1nc(C)c(-c2csc(Nc3ccc(S(N)(=O)=O)cc3)n2)s1,3.8,-9
CC(C)CNC(=O)c1cc(-c2ccccc2O)on1,1.2,8
O=S1(=O)N=C(N2CCc3ccccc32)c2ccccc21,x,7
CC(CC(=O)O)CC(=O)Nc1ccccn1 (configuration not stated),x,30

# Rewritten with tabs: part of the list above
SMILES	MgrA DNA FP	Sa helicase inh
CN1CCN(/C=C2\C(=O)N(c3ccc(Cl)cc3)C(=O)c3ccccc32)CC1	x	4
O=c1cc(-c2cccs2)oc2ccc(Br)cc12	2.4	-9

# The results go on:
SMILES,MgrA DNA FP,Sa helicase inh
CC(=O)Nc1ccc(C(=O)Nc2ccccn2)cc1,3.5,10
CCOC(=O)c1nonc1N,-2.0,6
Cc1cc(C(=O)Nc2ccc(C(=O)N3CCOCC3)cc2)cs1,-0.3,15
Cc1nn(CC(=O)Nc2ccc(N3CCCC3)cc2)c(=O)c2ccccc12,x,-7
COc1cc(OC)cc(C(=O)Nc2ccc(O)c(-c3nc4ccccc4s3)c2)c1,x,17
CCC(=O)Nc1cccc(NC(=O)c2ccccc2Cl)c1,0.3,2
CCOC(=O)CSc1sc(C(=O)OCC)c2c1C(=O)CCC2,0.6,x
O=C(c1ccc(S(=O)(=O)NCc2cccs2)s1)N1CCCC1,x,12
CNC(=O)CC1C(=O)N(c2ccc(Cl)cc2)C(=S)N1NC(=O)c1cccc(F)c1 (configuration not stated),1.8,4
FC(F)(F)c1ccc(-c2noc(-c3csnn3)n2)cc1,-0.4,x
CCN(CC)C(=O)NCCc1nnc(SC)n1C,-1.6,8
CC(C)c1ccc(N(CC(=O)N2CCN(Cc3ccccc3)CC2)S(C)(=O)=O)cc1,0.2,2
N#Cc1nccnc1N1CCN(C(c2ccccc2)c2ccccc2)CC1,-0.5,x
Fc1ccc(Sc2cc(Cl)c(-c3ccccc3)nn2)cc1,0.7,x
OC(COc1ccc(-c2ccccc2)cc1)Cn1ccnc1 (configuration not stated),3.9,8
O=C(Nc1ccccc1C(F)(F)F)N1CCC(Nc2nc3ccccc3o2)CC1,x,-14
Cc1c(NC(=O)C(C)OC(=O)c2c(F)cccc2Cl)c(=O)n(-c2ccccc2)n1C (configuration not stated),x,-5
CSc1nc2ccc(NC(=O)c3ccccc3)cc2s1,2.5,x
O=C(CSc1ccccc1)Nc1ccccc1N1CCOCC1,-2.5,3
CCCN(Cc1nnc(-c2ccco2)o1)C(=O)C1CC(=O)N(Cc2ccccc2)C1 (configuration not stated),x,-11
N#CCC(=O)N/N=C/c1ccc(-c2cc(C(F)(F)F)cc(C(F)(F)F)c2)o1,-1.5,x
CCOc1cc(C2C(C(=O)OC)=CNC=C2C(=O)OC)cc(Br)c1OCC,x,2
Cc1csc2c(=S)nc[nH]c12,1.8,x
c1coc(CSc2nc3ccccc3n3cnnc23)c1,3.6,9
CN1C(=O)/C(=C/c2ccc(C(=O)NC3CCCC3)cc2)Oc2ccccc21,0.2,-16
# Going on with the list:
SMILES,MgrA DNA FP,Sa helicase inh
COc1cc(CCC(C)NC(=O)c2ccco2)ccc1OC(=O)c1ccco1 (configuration not stated),0.1,x
CCC(=O)N1c2ccccc2NC2=C(C(=O)CC(c3ccco3)C2)C1c1ccc(OC)c(OC)c1 (configuration not stated),-0.5,x
Cc1ccc(/C=N/NC(=O)Cn2ccc(C(F)(F)F)n2)o1,x,19
O=S(=O)(c1ccc2c(c1)C(=NO)c1cc(S(=O)(=O)N(CCO)CCO)ccc1-2)N(CCO)CCO,x,-18
O=C(COC(=O)C1CCN(S(=O)(=O)c2ccc3c(c2)OCCO3)CC1)c1ccc(Cl)s1,x,-5
CC1CN(CC(=O)N2CCNC2=O)CC(C)O1 (configuration not stated),x,3
COc1cc(NC(=O)CSc2ccccc2)cc(OC)c1,x,5
O=S(=O)(c1ccc2c(c1)CCCN2)N1CCCCC1,x,-12
CCOC(=O)CNC(=O)c1ccc(Cl)cc1,-2.8,x
CCSc1nc2c(c(=O)n1CC)SCC2,x,10
CCOC(=O)c1ccc2nc(/N=C/NO)sc2c1,9.0,x
CCN1C(=O)c2cccc3c(S(=O)(=O)N(C(=O)c4ccncc4)c4ccc(OC)cc4)ccc1c23,2.0,13
CCOC(=O)c1c(C)n(-c2ccccc2Br)c2c1cc(O)c1ccccc12,-2.9,x
O=c1c2c(-c3cccs3)csc2[nH]c(=S)n1CCc1ccccc1,x,14
Cc1cc(C)c2[nH]c(=O)c(CNCC3CCCO3)cc2c1 (configuration not stated),-0.9,13
Cc1nc(N)[nH]c(=O)c1CCC(C)C,-1.4,x

# Screening data from PubChem BioAssay.

# Not all compounds are listed; the hit share may differ from the screen's.
